# Screening data (PubChem BioAssay)
# GIRK2 activ = GIRK2 channel activation; HEK293-GIRK2 thallium flux, Thallos fluorescence; calls only for hits at 25 µM; 63,000 tested, 0.05% active;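 active = among the strongest 0.2% of first-round signals and kept after retests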;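 note: first round at about 10 µM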
# Target sequence (P48051 whole entry, looked up): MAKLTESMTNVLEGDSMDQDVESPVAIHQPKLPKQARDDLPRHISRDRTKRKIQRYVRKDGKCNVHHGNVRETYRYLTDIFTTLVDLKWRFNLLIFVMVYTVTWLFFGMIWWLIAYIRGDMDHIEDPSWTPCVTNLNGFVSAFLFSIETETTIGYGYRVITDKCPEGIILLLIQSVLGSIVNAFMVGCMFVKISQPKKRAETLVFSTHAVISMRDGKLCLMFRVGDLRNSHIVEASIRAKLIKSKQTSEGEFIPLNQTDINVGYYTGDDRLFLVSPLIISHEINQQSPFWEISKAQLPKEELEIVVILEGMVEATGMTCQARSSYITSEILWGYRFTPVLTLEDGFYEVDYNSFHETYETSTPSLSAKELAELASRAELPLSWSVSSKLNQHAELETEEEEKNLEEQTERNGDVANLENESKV
# Calls only; i = inactive. These rows are one share of the data (hit frequency here may not be typical).
SMILES,GIRK2 activ
COc1ccc(-c2noc(-c3cccn(CC(=O)NCc4ccccc4Cl)c3=O)n2)cc1OC,i
COCC(C)NC(=O)c1ccc2nc(-c3ccccc3)c(-c3ccccc3)nc2c1 (centres undefined),i
O=C(c1ccc(Cl)s1)N1CCN(CCn2cccn2)CC1,i
CCCCn1c(=O)c2c(nc3n2CC(C)CN3c2ccc(OC)cc2)n(C)c1=O (centres undefined),i
Cc1cc(NC(=O)c2cn(C)nc2S(=O)(=O)N2CCN(c3cccc(Cl)c3)CC2)ccc1F,i
Cc1cnc(NC(=O)c2nc(-c3cnccn3)no2)s1,i
CCOc1ccc(-c2[nH]ncc2Oc2cccc(OC)c2)c(O)c1,i
COc1ccc(Cl)cc1NC(=O)NCCn1ncccc1=O,i
O=C(CC1CCCCC1)N1CCN(CC(O)c2ccco2)CC1 (centres undefined),i
O=C(c1cc(-c2ccco2)[nH]n1)N1CC(c2nc(-c3ccccn3)no2)C1,i
O=S(=O)(NCCOc1ccc(-c2ccccc2)nn1)c1ccc(I)cc1,i
O=S(=O)(Nc1cnc(N2CCOCC2)nc1)c1ccc(Cl)cc1,i
COc1ccc(Cl)cc1C(=O)Nc1cnc(N2CCN(C)CC2)nc1,i
O=C(COc1ccccc1)NCCCS(=O)(=O)N1CCc2ccccc2C1,i
CCOC(=O)N1CCN(Cc2cc(=O)oc3ccc4ccccc4c23)CC1,i
COc1ccc(-n2c(SCc3nc(-c4ccccc4)no3)nc3[nH]ncc3c2=O)cc1Cl,i
COc1ccccc1OCC#CCNC(=O)c1ccc(Cl)s1,i
CCN(CC)CCN(C(=O)c1ccco1)c1nc2ccc(S(C)(=O)=O)cc2s1,i
CCOc1ccc(-c2noc(-c3nnn(-c4cccc(C(F)(F)F)c4)c3N)n2)cc1,i
Cc1c(Cl)cccc1NC(=O)c1cc2ccccc2c(=O)s1,i
COc1ccccc1-n1c(C)cn2c3c(=O)n(CCc4ccccc4)c(=O)n(C)c3nc12,i
CCS(=O)(=O)NCC1CCC(C(=O)Nc2ccc(OC)c(Cl)c2)CC1 (centres undefined),i
COCCn1c(-c2ccc(F)cc2)nc2c(c(=O)c3ccccc3n2C)c1=O,i
CCCCCOC(=O)CSc1nc2c(c(=O)n(C)c(=O)n2C)n1Cc1ccc(F)cc1,i
COC(CNC(=O)C(=O)Nc1cc(N2CCCS2(=O)=O)ccc1C)OC,i
CCCS(=O)(=O)N1CCCc2cc(NS(=O)(=O)c3ccc(OC)c(Cl)c3)ccc21,i
CC(=O)Cn1c(=O)c2c(nc3n2CCCN3c2ccc(Cl)cc2)n(C)c1=O,i
Cc1nc(N2CCN(C(=O)Nc3ccccc3Cl)CC2)cc(-n2cccc2)n1,i
Cc1ccc(-c2csc3c(=O)n(CC(=O)Nc4ccc(Cl)cc4)cnc23)cc1,i
Cc1ccc(-n2ncc3c(=O)n(CC(=O)N4CCCCC4)cnc32)cc1C,i
COc1ccccc1C(=O)Oc1ccc2c(=O)c(-c3ccccc3OC)coc2c1,i
Cn1c(=O)[nH]c(=O)c2c1nc(NCCCn1ccnc1)n2CCCOc1ccccc1,i
COc1nn(C)cc1C(=O)Nc1ccc(C(=O)N2CCN(c3cccc(C(F)(F)F)c3)CC2)cc1,i
COc1ccc(/C=C/C(=O)NC(C)C)cc1Br,i
Cn1nc(N2CCC(C(=O)NCCOc3ccc4nnc(-c5ccccc5)n4n3)CC2)ccc1=O,i
CC[C@H](CO)Nc1nc(NCc2ccccc2)c2ncn(C(C)C)c2n1,i
COc1cccc(NC(=O)c2ccc(-c3ccccc3Cl)o2)c1,i
CC(=O)c1ccc(NC(=O)CSc2nnc3n(CC(C)C)c(=O)c4ccc(Cl)cc4n23)cc1,i
CC(C)c1ccc(NC(=O)Cn2nc3c(SCc4ccccc4)nccn3c2=O)cc1,i
Cc1ccc(Cn2c(=O)c3c(nc(SCc4ccccc4)n3C)n(C)c2=O)cc1,i
COc1ccc(C)cc1S(=O)(=O)NCCNC(=O)c1ccc(NC(=O)C(C)(C)C)cc1,i
O=S(=O)(c1ccc2c(c1)CCCC2)N1CC(c2nc(-c3cnccn3)no2)C1,i
CCOc1ccc(-n2nnnc2CN2CCN(C(=O)NC3CCCCC3)CC2)cc1,i
O=C(COc1ccc(Cl)cc1Cl)N1CC(c2nc(-c3cccnc3)no2)C1,i
CCOC(=O)N1CCN(C(=O)Cn2ccc3c(OC)cccc3c2=O)CC1,i
CN1CCC(CNC(=O)c2ccc(F)cc2)CC1,i
COC(=O)c1ccc(S(=O)(=O)NCCn2nc(C3CC3)n(-c3ccccc3)c2=O)cc1,i
O=C(NCCOc1ccccc1)NCC1CCN(S(=O)(=O)C2CC2)CC1,i
O=C(Nc1nc2ccccc2[nH]1)c1cc2cc(Br)ccc2o1,i
CC(C)(Oc1ccc(Cl)cc1)C(=O)Nc1nc2c(s1)COCC2,i
CCCc1nnsc1C(=O)N1CCN(C(=O)C2CC2c2ccccc2)CC1 (centres undefined),i
Cc1cc(NC(=O)CN2CC(C)CC(C)C2)nc2c1c(=O)oc1ccccc12 (centres undefined),i
CC(Oc1ccccc1)C(=O)NCC1CCN(c2ccccn2)CC1 (centres undefined),i
Cn1c(=O)[nH]c(=O)c2c1nc(N1CCN(CC(N)=O)CC1)n2Cc1cccc(Cl)c1,i
O=C(CC(c1ccccc1)c1ccccc1)NCC1CCS(=O)(=O)C1 (centres undefined),i
CCCNC(=O)COc1coc(CN2CCN(c3ccc(F)cc3)CC2)cc1=O,i
CC1=CCC2C(C)(C)CCC[C@]2(C)[C@@]12CC[C@](C)(CC(=O)O)O2 (some centres undefined),i
O=C(NCC1CCN(C(=O)/C=C/c2ccco2)CC1)c1ccc(OC(F)(F)F)cc1,i
Cc1ccnc(Nc2cc(NCCNS(=O)(=O)c3ccccc3)nc(C)n2)c1,i
CS(=O)(=O)c1ccc(Nc2nc(C(=O)Nc3ccc(F)c(Cl)c3)cs2)cc1,i

# More compounds follow:
SMILES,GIRK2 activ
O=C(Nc1cccc2ccccc12)C1CCCN(c2ccc(-n3cccn3)nn2)C1 (centres undefined),i
CCN1CCc2c(sc(NC(=O)CSc3ccc(OC)cc3)c2-c2nc3ccccc3s2)C1,i
O=C(NCc1cccs1)c1csc(Nc2ccc(OC(F)F)cc2)n1,i
O=C(COc1ccc(Cl)cc1Cl)Nc1cnc(N2CCCC2)nc1,i
Cc1cccc(C)c1OCC(=O)Nc1ccc(N(C)C)cc1,i
O=C(Nc1ccc(Cl)c(Cl)c1)Nc1ccc(Cl)c(N2CCCS2(=O)=O)c1,i
COCCOC(=O)c1c(C)oc2ccc(OC(=O)C3CC3)cc12,i
CCOC(=O)CNC(=O)CSc1c(CC)cnc2c1c(=O)n(C)c(=O)n2C,i
O=C(c1c(F)cccc1Cl)N1C2CCC1COC2,i
CCc1ccc(NC(=O)Cn2cc(S(=O)(=O)N3CCOCC3)ccc2=O)cc1,i
O=C1OC2CC1N(C(=O)C13CC4CC(CC(C4)C1)C3)C2 (centres undefined),i
O=C1CCSCC(C(=O)Nc2cccc(Br)c2)N1 (centres undefined),i
Cc1csc(NC(=O)C2CSCCC(=O)N2)n1 (centres undefined),i
COc1ccc(S(=O)(=O)Nc2ccc(N3CCCCS3(=O)=O)cc2)cc1F,i
O=C(Nc1ccccc1C(F)(F)F)N1CCC(Cn2ccnc2)CC1,i
CCc1cc(C(=O)Cc2ccc3c(c2)OCCCO3)c(O)cc1OC,i
Cc1ccc(S(=O)(=O)c2c(C)cc(C)n(CC(=O)NCc3ccccc3)c2=O)cc1,i
O=C1CC(Nc2ccc3c(c2)OCO3)C(=O)N1C1CCCCC1 (centres undefined),i
COc1nn(C)cc1C(=O)Nc1nnc(SCC(=O)NCc2ccco2)s1,i
O=C(Cn1nc(-c2cccnc2)ccc1=O)Nc1nc2ccc(Cl)cc2s1,i
COCCN1CCC(CNC(=O)c2cnccn2)CC1,i
CC(=O)c1ccc(NC(=O)c2nnn(-c3ccc4noc(-c5ccc(Cl)cc5)c4c3)c2C)cc1,i
COc1ccc(C(=O)CSc2cc(C)nc3c(-c4ccccc4)c(C)nn23)cc1OC,i
O=c1[nH]c(=S)c2c(n1CC1CCCO1)CCC2 (centres undefined),i
CS(=O)(=O)N1N=C(c2cccc(O)c2)CC1c1ccco1 (centres undefined),i
CCOC(=O)c1ccc2c(c1)sc(=NC(=O)c1ccnn1C)n2C,i
O=c1ccn(Cc2nnc(SCc3ccc(Cl)cc3)o2)c(=O)[nH]1,i
O=c1cccnn1CCNS(=O)(=O)c1ccc(Cl)cc1,i
O=C(NCCCN1CCN(c2ccccc2)CC1)C(=O)Nc1ccc2c(c1)OCCO2,i
COCCNC(=O)N1CCC(CSCc2ccco2)CC1,i
COc1cc2[nH]c3c(=O)n(CC(=O)Nc4ccc(F)c(F)c4)cnc3c2cc1OC,i
Cc1ccc(/C=C/c2nc(C#N)c(N3CCN(C(=O)c4cccs4)CC3)o2)cc1,i
CCn1c(C2CC(=O)N(Cc3ccccc3)C2)nc2ccccc21 (centres undefined),i
COc1nn(C)cc1C(=O)NCC1(c2ccccc2)CCOCC1,i
O=C(CN1N=NC2C(=O)N(c3ccc(F)c(F)c3)C(=O)C21)Nc1ccccc1F (centres undefined),i
Cc1cc(O)cc(C)c1/C=C/c1cncc(C(=O)OC(C)(C)C)c1,i
O=C(c1c(F)cccc1Cl)N1CCC(CSCc2ccco2)CC1,i
COc1ccc(-c2csc(CN3CCN(C(=O)c4ccccc4C(F)(F)F)CC3)n2)cc1,i
COc1ccc(C2CCCN2CCNC(=O)C(C)Oc2ccccc2)cc1 (centres undefined),i
O=C(NCC1CCN(C(=O)c2ccncc2)CC1)C1c2ccccc2Oc2ccccc21,i
CCC(=O)Nc1ccc(SCC(=O)N2CCCc3ccccc32)nn1,i
COc1cccc(OCC(=O)NCc2cc(C)oc2C)c1,i
CCC(C)Nc1nc2c(c(=O)n(C)c(=O)n2C)n1CC(O)COc1ccc(Cl)cc1 (centres undefined),i
CS(=O)(=O)c1ccc(C(=O)Nc2ccc(Cl)c3ncsc23)cc1,i
O=C(NCc1cccs1)NCC1CCN(Cc2ccsc2)CC1,i
COC(=O)N1CCc2ccc(Br)cc2C1C(=O)Nc1cc(Cl)ccc1C#N (centres undefined),i
COc1cccc2cc(C(=O)Nc3nc4c(s3)COCC4)oc12,i
Cc1cc(CCNC(=O)c2ccc(OC(C)C)cc2)on1,i
Cc1noc(CNC(=O)C2COc3ccccc3O2)n1 (centres undefined),i
COc1ccccc1CN1COc2ccc3c(c2C1)O/C(=C\c1ccc(OC)c(OC)c1OC)C3=O,i
Cc1cc2c(cc1C)NC(CC(=O)Nc1ccc(Cl)c(Cl)c1)C(=O)N2 (centres undefined),i
COc1ccc(/C=C/C(=O)NCC2(CO)CC2)cc1OC,i
CCc1cccc(NC(=O)c2cn(Cc3ccc(NC(=O)Cc4ccc(OC)cc4)cc3)cn2)c1,i
O=C(NCc1ccc(C(O)c2cccs2)s1)c1cc(-c2ccccc2)on1 (centres undefined),i
CCc1cc2c(NCCCC(=O)O)nc(C(C)C)nc2s1,i
Cc1ccc(NC(=O)CSc2ccc(N3CCCCCC3)nn2)cc1Cl,i
CCOc1ccc(-c2csc(-n3nc(C)cc3NC(=O)c3ccccc3[N+](=O)[O-])n2)cc1,i
Cc1cccc(N2CC(c3nc4ccccc4n3CC(=O)N3CCCCC3)CC2=O)c1 (centres undefined),i
O=C(c1nnn(-c2ccc(Cl)cc2)n1)N1CCCCC1,i
CC(C)N(CC#CCNC(=O)NCc1ccccc1)C(C)C,i

# Later entries
SMILES,GIRK2 activ
Cc1cc(NC(=O)CSc2ccccc2)n(-c2nc3ccccc3s2)n1,i
CCCOC(=O)c1ccc(Oc2c(C)oc3cc(OCC#N)ccc3c2=O)cc1,i
Cc1ccc(-c2noc(-c3ccc(=O)n(CC(=O)Nc4ccc(Br)cc4)c3)n2)cc1,i
C=C[C@H]1[C@H](O[C@@H]2O[C@H](CO)[C@@H](O)[C@H](O)[C@H]2O)OC=C(C(=O)OC)[C@H]1C[C@@H]1c2cc(O)c(O)cc2CCN1C(C)=O,i
CCc1ccc(OCC(O)CNC(C)(C)C)cc1 (centres undefined),i
Cc1ccc(NC(=O)CN2CCC(C(=O)Nc3nc4c(s3)CCCC4)CC2)c(C)c1,i
COc1ccccc1CCNC(=O)c1cc(=O)c(OCc2ccc(F)cc2)cn1C,i
Cc1cc(C)n(-c2nc(CCNC(=O)c3ccc(S(=O)(=O)N(C)C)cc3)cs2)n1,i
COc1ccc(OCC(O)Cn2c(NCc3cccnc3)nc3c2c(=O)[nH]c(=O)n3C)cc1 (centres undefined),i

# Gathered by group: the compounds so far with fluorine.
SMILES,GIRK2 activ
Cc1cc(NC(=O)c2cn(C)nc2S(=O)(=O)N2CCN(c3cccc(Cl)c3)CC2)ccc1F,i
CCOc1ccc(-c2noc(-c3nnn(-c4cccc(C(F)(F)F)c4)c3N)n2)cc1,i
COCCn1c(-c2ccc(F)cc2)nc2c(c(=O)c3ccccc3n2C)c1=O,i
CCCCCOC(=O)CSc1nc2c(c(=O)n(C)c(=O)n2C)n1Cc1ccc(F)cc1,i
COc1nn(C)cc1C(=O)Nc1ccc(C(=O)N2CCN(c3cccc(C(F)(F)F)c3)CC2)cc1,i
CN1CCC(CNC(=O)c2ccc(F)cc2)CC1,i
CCCNC(=O)COc1coc(CN2CCN(c3ccc(F)cc3)CC2)cc1=O,i
O=C(NCC1CCN(C(=O)/C=C/c2ccco2)CC1)c1ccc(OC(F)(F)F)cc1,i
CS(=O)(=O)c1ccc(Nc2nc(C(=O)Nc3ccc(F)c(Cl)c3)cs2)cc1,i
O=C(NCc1cccs1)c1csc(Nc2ccc(OC(F)F)cc2)n1,i
O=C(c1c(F)cccc1Cl)N1C2CCC1COC2,i
COc1ccc(S(=O)(=O)Nc2ccc(N3CCCCS3(=O)=O)cc2)cc1F,i
O=C(Nc1ccccc1C(F)(F)F)N1CCC(Cn2ccnc2)CC1,i
COc1cc2[nH]c3c(=O)n(CC(=O)Nc4ccc(F)c(F)c4)cnc3c2cc1OC,i
O=C(CN1N=NC2C(=O)N(c3ccc(F)c(F)c3)C(=O)C21)Nc1ccccc1F (centres undefined),i
O=C(c1c(F)cccc1Cl)N1CCC(CSCc2ccco2)CC1,i
COc1ccc(-c2csc(CN3CCN(C(=O)c4ccccc4C(F)(F)F)CC3)n2)cc1,i
COc1ccccc1CCNC(=O)c1cc(=O)c(OCc2ccc(F)cc2)cn1C,i
